Source: PubChem BioAssay
UCH37 DUB inh: human UCH37 deubiquitinating enzyme inhibition | 330,000 tested, 0.33% active | Q9Y5K5 | inhibition, % (concentration not given with the values) | purified proteasome/UCH37, Ub-AMC cleavage fluorescence;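 active = mean of two replicates above 20%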;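 note: 0% = compound-free wells with enzyme and 100% = wells lacking proteasome; stock transfer was 100 nL into about 20 µL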
Target sequence (Q9Y5K5 whole entry, looked up): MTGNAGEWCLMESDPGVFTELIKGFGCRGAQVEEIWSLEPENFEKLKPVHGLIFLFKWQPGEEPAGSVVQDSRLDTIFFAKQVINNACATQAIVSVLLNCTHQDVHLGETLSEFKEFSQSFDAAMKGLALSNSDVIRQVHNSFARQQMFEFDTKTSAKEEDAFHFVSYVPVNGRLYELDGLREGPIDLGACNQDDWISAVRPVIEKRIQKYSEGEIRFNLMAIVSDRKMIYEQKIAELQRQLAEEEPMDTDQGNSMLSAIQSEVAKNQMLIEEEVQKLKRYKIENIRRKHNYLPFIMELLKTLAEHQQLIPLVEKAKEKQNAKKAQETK
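Material: human UCH37 enzyme supplied as purified proteasome complex. Measure: % inhibition of Ub-AMC cleavage fluorescence. Medium: pH 7.4 Tris-HCl (50 mM) with ovalbumin, ATP-MgCl2, DTT. Times: 30 min preincubation with enzyme, 25 min cleavage at room temperature. Detection: AMC fluorescence intensity at 355/460 nm.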
B2AR ag: agonists of human beta-2 adrenergic receptor inducing internalization. P07550. Am2.2-beta2AR cells, FAP receptor internalization, flow cytometry; reference of the scale not given here. response, % (no concentration beside the values). 340,000 tested, 0.43% active. AID 504454;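 active = response above a set limit, near 3 SD of response in nonfluorescent compounds, cut at about 42% in these data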;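 note: stock transfer was 100 nL into about 11 µL; a reference agonist was the positive control; negative values mostly stem from fluorescent compounds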
Target sequence (P07550 whole entry, looked up): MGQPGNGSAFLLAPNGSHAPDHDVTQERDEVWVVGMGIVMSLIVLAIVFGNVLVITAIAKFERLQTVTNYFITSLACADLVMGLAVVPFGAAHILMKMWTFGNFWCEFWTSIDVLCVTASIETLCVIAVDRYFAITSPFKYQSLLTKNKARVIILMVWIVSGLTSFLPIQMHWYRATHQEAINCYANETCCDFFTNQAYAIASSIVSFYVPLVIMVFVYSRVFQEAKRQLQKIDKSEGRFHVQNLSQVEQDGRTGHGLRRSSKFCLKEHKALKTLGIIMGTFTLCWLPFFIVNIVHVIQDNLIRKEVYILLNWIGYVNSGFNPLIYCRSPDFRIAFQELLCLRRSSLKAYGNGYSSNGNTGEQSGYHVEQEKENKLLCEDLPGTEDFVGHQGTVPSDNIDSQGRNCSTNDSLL
HNF4A DNA FP: change in binding of human HNF4 alpha to DNA; P41235; HNF4a-FITC DNA binding, fluorescence polarization, 1 h; activity change, % at 10 µM; 360,000 tested, 0.3% active; AID 1224865; in the data active = activity change above about 30%, passing the limit was not always enough;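 note: controls were the assay level and a saturating level of protein; the project sought stronger binding though the title names inhibitors; some compounds called inactive have numbers as strong as hits; positive values seem to mean higher polarization but the record does not say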
FGF22 binding: binders of recombinant human FGF22 by thermal shift. Q9HCT0. SYPRO orange fluorescence; percent of sucrose octasulfate shift, DMSO zero. calls only at 9.99 µM. 340,000 tested, 1.5% active. AID 651658;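 active = melting point raised past a set limit in the mean and every replicate; inconclusive = no clear call; three in four hits are not shown here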
Target sequence (Q9HCT0 whole entry, looked up): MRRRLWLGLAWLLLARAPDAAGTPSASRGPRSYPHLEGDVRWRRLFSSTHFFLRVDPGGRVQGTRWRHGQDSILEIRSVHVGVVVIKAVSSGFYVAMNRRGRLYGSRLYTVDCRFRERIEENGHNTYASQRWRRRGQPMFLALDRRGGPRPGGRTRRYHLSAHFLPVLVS
LANA-H2B inh: blocks KSHV LANA binding to histone H2A/H2B; 320,000 tested, 0.6% active; cell-free LANA-H2A/H2B peptide, fluorescence polarization; Q9QR71; inhibition, % (concentration not given with the values); AID 2629; in the data active = inhibition mostly above about 10%, no sharp cut-off; inactive = mostly below about 6.7%;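 note: stock transfer was 7.5 nL into about 10 µL; 0% = median of vehicle wells and 100% = median of positive control wells; one replicate is shown; the record names a cut of 25% in any replicate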
Ecoli growth: blocks Escherichia coli growth. OD600, 23 h; active compounds read low. OD600 absorbance (concentration not given with the values). 330,000 tested, 0.21% active. AID 1053175;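 active = OD600 absorbance below the run mean of sample wells minus 3.6 SD, in any replicate, cut at about 0.56 in these data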;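 note: stock transfer was 300 nL into about 60 µL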
ALR H2O2 inh: human ALR oxidase inhibition via reduced H2O2; purified ALR, DTT oxidation, H2O2 HRP-luminol luminescence; inhibition, % (no concentration beside the values); 290,000 tested, 3.8% active; AID 485317;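 active = mean and each replicate at 75% or more; inconclusive = only one of the two met; inactive = neither met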;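 note: stock transfer was 7.5 nL into about 7.5 µL; 0% = neutral wells and 100% = wells with inactivated enzyme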
* hit, by the source's call; i = inactive; ? = inconclusive; / = not tested or not shown. Some of the compounds tested. The share of hits here may be higher or lower than overall.

SMILES	UCH37 DUB inh	B2AR ag	HNF4A DNA FP	FGF22 binding	LANA-H2B inh	Ecoli growth	ALR H2O2 inh
CCCCCCCC(=O)Nc1cc(C(=O)NCCC)ccc1N1CCC2(CC1)CC(c1cccc(Br)c1)=NO2	3.8	3.7	11.7	i	2.4	0.729	-14.7
COc1ccc(C(=O)NNC(=S)NC(=O)c2ccc(OC)cc2)cc1	/	3.6	-1.1	i	0.6	/	62.1
O=C(Cc1ccc(F)cc1)Nc1cccc(S(=O)(=O)N2CCCC2)c1	-0.7	7.7	-2.9	i	-0.1	0.7	-11.0
COc1ccc(OC)c(NC(=O)c2cc3c(Cl)nc4ccccc4c3s2)c1	-67.9	-5.6	4.8	/	-0.1	0.707	-10.2
O=C(CCc1nnc(C2CCCCC2)o1)NCc1cccc(-n2cccn2)c1	0.6	-19.8	-4.0	i	-8.8	0.693	-2.5
CC(=O)c1ccc(NC(=O)C2CC2c2ccccc2)cc1 (centres undefined)	1.7	-4.9	2.1	i	0.6	0.66	-2.4
O=C(NCC1CCCCC1)c1ccc(F)cc1Cl	-0.3	-11.6	6.1	i	2.7	0.607	-1.2
COc1ccc(C(=O)NC(=O)NC2(C(Cl)(Cl)Cl)OCCO2)cc1	4.1	6.3	-2.7	i	-13.3	0.696	/
CCOC(=O)C1=C(C)NC(C)=C(C(=O)OCCNC(=O)c2cccnc2)C1c1cccc([N+](=O)[O-])c1 (centres undefined)	10.4	-18.9	-0.6	/	0.0	0.677	-15.8
CN(C)CCN1C(=O)c2oc3ccc(Cl)cc3c(=O)c2C1c1cccc(Br)c1 (centres undefined)	5.1	-2.0	-0.2	/	1.9	0.704	2.1
CN(NS(=O)(=O)c1ccccc1)C(=O)c1ccccc1	1.6	-0.2	-7.1	i	/	0.682	/
CCNc1nc(NCC)n2c(SCC(=O)Nc3c(C)cccc3C)nnc2n1	-2.7	0.3	2.4	i	/	0.696	/
O=C(O)CCc1nnc(SCC(=O)Nc2cccc(C(F)(F)F)c2)[nH]c1=O	1.7	-2.2	0.3	/	-7.1	0.696	99.1*
CC(=O)c1cn(-c2ccc(Cl)cc2)c(=O)n(Cc2ccc(Br)cc2)c1=O	0.2	-10.5	-2.2	i	-0.1	0.702	0.8
CCN(CC)CCn1cnc2c1c(=O)n(CCOC(=O)c1cc(OC)c(OC)c(OC)c1)c(=O)n2C	0.8	-6.0	4.3	i	-3.0	0.671	-5.1
Nc1c(-c2ccccc2)cnn1-c1ccccc1	3.9	2.3	1.0	i	3.8	0.681	15.0
CCOC(=O)c1ccc(N2Cc3ccccc3C2=N)cc1	5.0	2.7	-0.9	/	-1.5	0.709	-2.1
O=[N+]([O-])c1ccccc1CN1CCN(S(=O)(=O)Cc2ccccc2)CC1	2.0	-3.9	1.1	i	-4.6	0.64	7.0
CN(CC(=O)Nc1ccc(N2CCOCC2)cc1)C(=O)CSc1ccccc1F	4.8	13.6	2.9	i	-1.2	0.673	22.0
c1ccc(CN2CCOCCOCCOCCOCCOCCOCC2)cc1	14.6	-5.5	2.7	i	-1.9	0.699	-11.1
COC(=O)C1(C)NC(c2ccc(O)cc2)C2C(=O)N(c3ccc(F)cc3)C(=O)C21 (centres undefined)	-1.0	-3.3	-0.8	i	0.4	0.673	1.5
Cc1nnc(SCc2nc3sc(C(=O)O)c(C)c3c(=O)[nH]2)s1	4.2	3.2	-3.9	i	-1.6	0.636	-4.8
CCn1cc(S(=O)(=O)Nc2ccc3c(c2)OCCO3)cn1	1.5	0.1	-1.2	i	2.7	0.659	-11.3
COc1ccc(-c2nnc3c4ccccc4c(C)nn23)cc1S(=O)(=O)N1CCN(CCO)CC1	-4.9	-9.5	4.7	/	1.6	0.706	-4.1
CC(C)(C)[C@@H]1COC(=O)[C@@H](Cc2ccc(F)cc2)C/C=C\C[C@H](CC(=O)N(CCO)Cc2ccccc2)C(=O)N1	0.6	7.9	-0.9	i	-2.2	/	-4.8
COc1ccccc1N1CCN(C(=O)c2cc(-c3ccc4c(c3)OCO4)on2)CC1	2.9	1.1	0.8	i	-32.0	0.728	-5.1
CCOC(=O)C1CCCN(c2nc3ccccc3nc2C(C#N)C(=O)OC(C)C)C1 (centres undefined)	-2.8	-7.6	2.1	i	0.2	0.755	-7.5
Cc1ccc(C)c(NC(=O)Cn2nc(C)c3ccccc3c2=O)c1	-1.0	-10.2	-2.4	/	-4.2	0.729	-3.6
Oc1ccc(Nc2ncnc3ccccc23)cc1	4.7	8.4	2.0	i	2.9	0.597	59.3
O=C(NCc1ccccc1Cl)C1CCCO1 (centres undefined)	3.5	-1.4	-2.7	i	-2.9	0.688	/
CC(C)NC(=O)c1cc2cc(Br)ccc2oc1=O	0.4	-4.3	-1.9	/	-1.3	0.727	-14.9
COC(=O)COc1ccc(S(=O)(=O)NCc2ccccn2)cc1	2.9	7.3	7.9	i	3.2	0.682	-11.7
CC(C)CC(NC(=O)C1CCC(C)CC1)C(=O)Nc1cccnc1 (centres undefined)	1.1	1.2	0.1	/	1.5	0.707	-21.6
COCCn1c(-c2cccs2)nc2nc3ccccc3nc21	i	-6.4	-5.3	i	2.2	0.631	/
Cn1cnc2c(cnn2C)c1=O	1.3	0.9	1.9	i	/	0.709	/
CC(=O)C1C(c2cn(-c3ccccc3)nc2-c2cccs2)NC(=O)NC1(O)C(F)(F)F (centres undefined)	-1.3	-8.7	2.1	/	3.1	0.679	-4.8
CCCCn1c(=O)c(C(=O)OCC)c(O)c2ccccc21	2.1	3.8	1.1	/	0.5	0.664	/
CCN1CCN(C(=O)CCc2nnc3ccc(N4CCN(c5cccc(OC)c5)CC4)nn23)CC1	1.2	-0.4	6.7	i	6.5	0.721	99.1*
COc1ccc(C(=O)CSc2nc(C)cc(=O)[nH]2)cc1	0.1	-1.4	-1.1	/	-0.5	0.692	?
Cc1ccccc1-c1ncc(CN2CCC(CO)(CCCc3ccccc3)CC2)cn1	4.4	1.1	2.9	/	7.6	0.683	4.3
O=C(Oc1cccc(F)c1)c1ccc2c(=O)n3c(nc2c1)CCC3	/	6.6	0.6	i	2.3	/	5.2
Cc1cc(C)cc(C(=O)NCC(=O)OCC(=O)Nc2ccc(C)cc2Br)c1	3.0	-5.2	2.8	i	1.1	0.699	-14.8
O=C(Cc1ccc(F)cc1)OCn1nnc2ccccc2c1=O	6.6	1.7	1.9	i	2.6	0.701	-5.2
O=S(=O)(c1ccccc1)N1CCCCC1CCc1ccccc1 (centres undefined)	0.7	0.7	6.4	i	/	0.668	/
O=[N+]([O-])c1ccc(CN2CCN(c3nc4ccccc4s3)CC2)cc1	0.3	10.8	2.2	i	-0.5	0.704	-3.6

Three structures from above, arranged by number of heavy atoms, descending.
SMILES	UCH37 DUB inh	B2AR ag	HNF4A DNA FP	FGF22 binding	LANA-H2B inh	Ecoli growth	ALR H2O2 inh
Cc1cc(C)cc(C(=O)NCC(=O)OCC(=O)Nc2ccc(C)cc2Br)c1	3.0	-5.2	2.8	i	1.1	0.699	-14.8
O=C(Oc1cccc(F)c1)c1ccc2c(=O)n3c(nc2c1)CCC3	/	6.6	0.6	i	2.3	/	5.2
COC(=O)COc1ccc(S(=O)(=O)NCc2ccccn2)cc1	2.9	7.3	7.9	i	3.2	0.682	-11.7

Following part
SMILES	UCH37 DUB inh	B2AR ag	HNF4A DNA FP	FGF22 binding	LANA-H2B inh	Ecoli growth	ALR H2O2 inh
Cc1ccc(CCS(=O)(=O)c2ccc(C(C)(C)C)cc2)cn1	4.5	0.6	-2.2	i	-2.3	0.665	/
Cc1cccc2c1cnn2C(=O)CCC(=O)NC1CCCCC1	0.1	-0.6	1.7	i	-6.3	0.668	22.4
CCc1nnc(NC(=O)c2sc3nc4c(cc3c2N)CCCCCC4)s1	-70.6	7.2	-2.5	/	7.1	0.69	5.4
CC(C)C(=O)NC(Nc1cccc([N+](=O)[O-])c1)C(Cl)(Cl)Cl (centres undefined)	5.3	4.9	-2.6	i	5.1	0.716	-12.0
N/C(=N\OC(=O)COc1ccc(Br)cc1)c1cccc([N+](=O)[O-])c1	/	2.1	0.9	i	-4.2	/	-0.9
CC(=O)c1cc(CN2CCC(N3CCC(C(=O)N4CCCC4)CC3)CC2)cs1	4.8	1.7	1.1	i	1.3	0.71	-11.3
CCOCCCn1c(=N)c(C(=O)NCc2ccc3c(c2)OCO3)cc2c(=O)n3cccc(C)c3nc21	-24.5	16.7	2.0	i	-2.4	0.721	-14.7
O=C(CN1CCN(CC(=O)Nc2ccc(OCc3ccccc3)cc2)CC1)Nc1ccc(F)cc1	1.0	-3.6	-1.9	i	1.9	0.67	-4.4
Cc1cccc(NC(=S)N(Cc2ccc(Br)cc2)Cc2ccc(C(=O)O)cc2)c1	5.9	4.4	3.7	i	-3.5	0.659	63.5
C=CC[C@@H](CC(=O)N(CCO)Cc1ccccc1)C(=O)N[C@@H](COC(=O)[C@@H](CC=C)CC(=O)OC(C)(C)C)Cc1c[nH]c2ccccc12	1.9	8.6	1.6	/	-2.4	/	-1.8
COc1ccc(CCNC(=O)CCN2C(=O)c3cccc4cccc(c34)C2=O)cc1OC	-1.8	1.3	2.9	i	0.7	0.743	-3.6
Cc1cc(Cl)cc2sc(NC(=O)c3ccco3)nc12	-7.7	7.4	1.1	/	-2.3	0.682	-11.0
CC(C)(C)OC(=O)N(CCc1ccccc1)Cc1cccc(OCc2cccc(NC(=O)C3CCC3)c2)c1	/	-3.4	1.9	i	/	/	/
CC(=O)Nc1ccc(NCc2cccs2)cc1	-0.6	14.7	-2.2	i	-5.3	0.662	95.1*
COc1ccc(/C(N)=N/OC(=O)c2cc(-c3ccccc3)nc3ccccc23)cc1	-7.9	-1.2	1.3	/	-2.0	0.743	-4.9
CNCCCNC(=O)c1ccc(/C=N/O)nc1	/	-1.1	-3.2	i	-1.0	/	0.4
COc1ccc(CCNC(=O)c2ccc(-c3cccc([N+](=O)[O-])c3)o2)cc1OC	1.2	-5.0	1.9	i	0.0	0.703	-10.8
CC(=O)N1c2ccccc2CCc2ccc([N+](=O)[O-])cc21	-0.5	-4.4	-0.9	i	4.8	0.677	3.7
CCc1c(C)nc2cc(-c3ccc(OC)c(OC)c3)nn2c1N1CCCC1	-13.1	21.2	-0.5	/	-4.6	0.702	-11.6
O=C(CSc1nc2[nH]ncc2c(=O)n1-c1ccccc1)c1ccc2c(c1)OCCO2	4.6	13.8	2.4	/	-4.5	0.656	/
CC(C)N=C1NN=C(c2ccc(Cl)c(Cl)c2)CS1	4.5	-3.8	2.1	/	/	0.694	/
Cc1ccc(N=C2NC(=O)C(CO)(CO)S2)cc1	1.6	-6.4	0.8	i	0.2	0.661	-27.1
CCOC(=O)C1=C(C(=O)OCC)N(CC)CCC1=O	4.4	-3.4	-5.6	i	/	0.66	/
O=C(CN1C(=O)NC2(CCCC2)C1=O)Nc1nc(-c2ccccc2)cs1	1.2	13.5	-3.2	i	3.4	0.654	-6.6
Cc1ccc(S(=O)(=O)NNC(=O)C2COc3ccccc3O2)cc1C (centres undefined)	3.3	0.6	-4.4	i	-2.7	0.693	-2.7
Cc1ccc(S(=O)(=O)NC(=NCc2ccccc2)c2ccc(F)cc2)cc1	1.7	1.4	0.9	i	1.5	0.736	-1.7
O=C1CS/C(=N/N=C2CCCC2)N1	0.3	-1.3	1.3	/	-6.3	0.69	1.2
COCCn1c(SCC(=O)N2CCCC2)nc2c([nH]c3ccccc32)c1=O	5.9	3.2	0.0	i	2.5	0.696	-1.5
O=C(Nc1ccc(C(=O)Oc2ccccc2)c(O)c1)c1ccco1	0.6	-7.6	3.6	/	0.4	0.676	-0.9
CCc1cccc(NC(=S)Nc2ccc(CN3CCOCC3)cc2)c1	0.5	1.0	1.0	/	-0.8	0.65	7.5
O=C(COc1ccc(Cl)cc1Cl)N/N=C/C1CC=CCC1 (centres undefined)	/	-0.8	0.5	i	-2.7	/	2.3
COC(=O)c1ccccc1S(=O)(=O)N1CCC(C(=O)NCCC2=CCCCC2)CC1	0.7	-2.3	2.0	i	0.2	0.635	-25.4
CC(C)(C)C1CCC2(CC1)CC(=O)c1ccccc1O2 (centres undefined)	0.2	-1.6	-3.3	i	-4.9	0.621	-8.1
